Sa RN4220 lethal – kills Staphylococcus aureus RN4220 | 330,000 tested, 0.33% active | inhibition, % (test concentration not listed) | S. aureus RN4220 growth, OD600, 16 h;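 active = z-score of -3 or lower and OD600 up to 0.18 on both plates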;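 note: plate controls were untreated cells for no effect and reference antibiotic for full effect; stock transfer was 100 nL into about 80 µL; one replicate is shown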
BJeLR viability – BJeLR cell viability loss | BJeLR (HRASV12) viability, CellTiter-Glo ATP luminescence, 48 h; reference of the scale not given here | 300,000 tested, 0.17% active | inhibition, % (no concentration beside the values);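 active = replicate mean above 50%; inconclusive = above 50% but judged a plate artefact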;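 note: 50 nL library stock added to about 25 µL; numbers are from one replicate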
Autofluor counter – flagged as autofluorescent in microsphere protease counterscreen; compound autofluorescence counterscreen, microsphere flow cytometry; active compounds read high; fluorescence intensity (no concentration beside the values); 360,000 tested, 3.1% active;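 active = at least 3 SD above the mean of all compounds, about 16000 in these data; inconclusive = too few beads counted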;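 note: 100 nL of 1 mM stock went into each well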
Mtb hypoxia rep – Mtb hypoxia fluorescent reporter inhibition; M. tuberculosis hypoxia-regulated fluorescent reporter, fluorescence; fluorescence inhibition, % (test concentration not listed); 300,000 tested, 0.1% active; AID 1159583;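 active = 35 to 45% if threefold the growth effect, above 45% if 1.5-fold the growth effect; inactive = the rest, general growth blockers included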;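 note: wells of about 50 µL received 100 nL stock; 0% = vehicle wells and 100% = reference inhibitor wells; whole bacteria with a GFP reporter of the hypoxia response; strong numbers were not always called active; many hits fall short of the cut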
Sa ugtP lethal – kills S. aureus RN4220 lacking UgtP; S. aureus RN4220 ugtP deletion, OD600 growth, 16 h; some inactives read as strong as hits; growth inhibition, % (test concentration not listed); 330,000 tested, 0.54% active;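 active = z-score under -3 and OD600 up to 0.15 on both plates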;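 note: plate controls were untreated wells for no effect and antibiotic for full effect; wells of about 80 µL received 100 nL stock; the first replicate is given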
PrP 5UTR inh – inhibition of PrP 5' UTR reporter expression. cell-based PrP 5' UTR mRNA reporter, plate reader. 340,000 tested, 0.35% active. inhibition, % (test concentration not listed);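 active = every replicate at 50% or more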;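 note: 0 = median of the neutral control wells; tested in H4 reporter cells; numbers are from one replicate; inactives centre near -14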
Mtb hypoxia rep growth – recorded beside Mtb hypoxia rep, whose call it bears; growth inhibition, %; measured here: M. tuberculosis growth (absorbance);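 0% = vehicle and 100% = reference antibiotic; read after six days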
An asterisk follows results filed as active; ? = inconclusive; . = no result given.

SMILES | Sa RN4220 lethal | BJeLR viability | Autofluor counter | Mtb hypoxia rep | Mtb hypoxia rep growth | Sa ugtP lethal | PrP 5UTR inh
O=C(CC1NCCc2ccccc21)Nc1ccccc1 (configuration not stated) | -2.6 | 4.0 | 3386 | -7.0 | -4.7 | -4.1 | -39.2
COC(=O)c1sccc1Oc1ccc(F)cc1[N+](=O)[O-] | 2.8 | 5.0 | 3160 | -1.9 | 5.0 | 1.7 | -5.8
CS(=O)(=O)c1cnc(-c2ccccc2)nc1Oc1ccc(Cl)cc1 | 2.9 | -1.8 | 3968 | 11.1 | 1.1 | 2.2 | 4.7
Cc1ccc(CNc2ccc(O)cc2)cc1 | -9.2 | 2.4 | 4101 | . | . | -12.2 | -18.7
O=C1CC(NNC(=O)c2cccc(F)c2)C(=O)N1 (configuration not stated) | 1.4 | 5.8 | 5999 | 1.7 | 6.4 | 6.4 | -15.8
Cn1c(-c2ccc(C(F)(F)F)cc2)cc2onc(-c3ccccc3)c2c1=O | 1.8 | . | 3832 | -4.7 | -5.0 | -10.3 | -15.9
CCOC(=O)C1CCN(S(=O)(=O)c2ccc3c(ccn3C)c2)CC1 | 0.7 | 4.1 | 5006 | 2.1 | -3.2 | 5.9 | -13.7
CCN(CC(=O)Nc1ccc2c(c1)OCCO2)c1ccc(S(=O)(=O)N2CCOCC2)cn1 | 0.7 | 5.2 | 4012 | -8.4 | -0.6 | 0.3 | 8.8
CCC(=O)NC(=S)Nc1ccc(NC(=O)c2cccc([N+](=O)[O-])c2C)cc1 | . | -8.8 | 2446 | . | . | . | -18.2
CCc1cccc(NC(=O)CN(c2ccc(C)cc2)S(=O)(=O)c2c(C)noc2C)c1 | 6.9 | 12.4 | 5826 | 1.0 | -5.0 | -10.0 | -21.6
CC(=NNC(=O)C1(C)CC1(Br)Br)c1ccc(NC(=O)C2CCC2)cc1 (configuration not stated) | -1.7 | . | . | -2.3 | 12.0 | -19.3 | .
CN1CCN(c2ccc([N+](=O)[O-])cc2NC(=O)c2cccs2)CC1 | 1.5 | 2.1 | 6321 | -2.3 | 13.3 | -0.7 | -9.7
Cn1ncc(Br)c1C(=O)NCc1cccs1 | 3.5 | -0.9 | 23748* | -1.9 | 6.8 | 1.9 | -9.1
OCC1(CCOc2ccccc2)CCN(Cc2ccncc2)CC1 | 1.5 | 2.3 | 4959 | 7.7 | 3.0 | 1.7 | -18.6
O=C(COc1ccccc1Br)NCCc1nc2ccccc2[nH]1 | 5.9 | -1.8 | 2276 | 1.2 | 8.8 | 10.8 | -32.9
CCC(C)N(C(=O)c1csnn1)C(C(=O)NCc1ccc(F)cc1)c1ccccc1 (configuration not stated) | 1.4 | -13.3 | 5968 | 0.5 | 3.6 | 7.0 | -4.8
CS(=O)(=O)N1CCCC(C(=O)c2cccc(Cl)c2)C1 (configuration not stated) | 6.8 | 1.7 | 4964 | 18.8 | 6.9 | 3.6 | -7.8
CC(=O)C1=C(O)C(=O)N(c2ccc(Br)cc2)C1c1ccccc1[N+](=O)[O-] (configuration not stated) | 1.8 | -7.5 | 3483 | -4.7 | 4.5 | 5.0 | -31.5
Cc1ccc(C(=O)Oc2coc(CSc3nnc(NC(=O)C4CC4)s3)cc2=O)cc1 | 3.6 | 9.0 | 2590 | 14.2 | 3.2 | 10.4 | 9.0
COc1ccc(C(c2nnnn2CC2CCCO2)N2CCC(C(N)=O)CC2)cc1 (configuration not stated) | 3.0 | -0.3 | 4176 | 2.1 | 5.3 | -4.3 | -10.4
C/C(CC(=O)Nc1cc(Cl)ccc1Cl)=N\NC(=O)COc1cccc(C)c1 | . | 2.4 | 3682 | . | . | . | -33.5
Cn1cncc1C#Cc1ccc2cc(CCO)oc(=O)c2c1 | -10.0 | . | 3667 | 0.9 | -2.8 | -0.3 | -13.2
O=C(C1CCN(C2CCN(CC3CC=CCC3)CC2)CC1)N1CCOCC1 (configuration not stated) | 1.5 | 5.1 | 5795 | 5.4 | -6.9 | 4.2 | -16.8
COc1cccc(CNC(=O)N2CCN(c3ccccc3)CC2)c1 | 5.6 | -6.3 | 4954 | 18.1 | 11.1 | 4.5 | -3.0
O=C(C1=C[C@H](c2ccc3c(c2)OCO3)C[C@H](OCCCCO)O1)N1CCN(Cc2ccccc2)CC1 | -9.0 | -1.4 | 4278 | 5.9 | -0.4 | -2.4 | -3.1
CN(C)C=Nc1nc2ccc3c(c2s1)CCCC3 | 5.1 | . | . | 12.3 | 13.1 | 1.7 | .
Cc1nn(Cc2ccc(Cl)c(Cl)c2)c(C)c1NC(=O)c1cc(C2CC2)on1 | 1.9 | -9.6 | 5900 | 6.1 | 1.0 | 8.8 | -17.5
O=C(/C=C/c1c(F)cccc1Cl)Nc1ccncc1 | 1.5 | -13.7 | 2564 | -9.4 | -3.3 | -1.1 | -30.2
Cc1cccc(N2CCN(CCCNC(=O)c3ccc(NC(=O)C4=CSCCO4)cc3)CC2C)c1 (configuration not stated) | . | -1.7 | 5476 | . | . | . | 9.1
COc1ccc(OCCn2c(=O)sc3ccccc32)cc1 | 4.4 | 0.6 | 5044 | 8.7 | 5.0 | 7.6 | -37.1
Cc1cccc(NC(=O)c2nc[nH]c2C(=O)N[C@@H](CC(C)C)C(=O)OC(C)(C)C)c1 | . | -6.5 | 3978 | . | . | . | -5.4
COc1ccccc1OCc1ccc(C(=O)Nc2cc(OC)c(OC)c(OC)c2)o1 | -1.0 | -6.5 | 4084 | 8.6 | 8.0 | 12.2 | -5.3
O=C1NC(=S)NC(=O)C1=Cc1c(Cl)cccc1Cl | 13.8 | . | 3199 | 10.2 | 8.9 | 2.2 | -13.9
CCOC(=O)c1cnn(-c2ccccc2)c1NC(=O)CN1CCCCC1 | 2.7 | 0.0 | 3831 | 5.2 | 0.2 | 13.5 | -10.5
N/C(=N\OC(=O)Oc1ccccc1)c1ccc(Cl)cc1 | 3.8 | 2.9 | 3136 | . | . | 4.8 | -23.6
COC(=O)C(Cc1ccccc1)NS(=O)(=O)c1ccc(F)cc1Br (configuration not stated) | 2.0 | -7.3 | 2947 | 3.1 | 4.9 | -2.0 | -14.4
O=C(O)CC1(CC(=O)Nc2ccc(F)c(Cl)c2)CCCCC1 | 27.8 | 1.7 | . | -8.8 | -6.9 | -7.0 | .
CC(CCn1cccn1)NC(=O)c1cc(COc2ccc(F)cc2Cl)on1 (configuration not stated) | 14.3 | 13.1 | 3366 | 14.0 | 7.1 | -67.0 | -8.2
Cc1ccccc1C(=O)Nc1nncs1 | 0.7 | 11.0 | 3161 | . | . | 5.4 | -6.1
Cc1ccc(Oc2cnn(-c3ccccc3)c(=O)c2Br)cc1 | 1.4 | -7.5 | 3255 | 2.4 | -7.2 | -0.2 | -25.7
COc1ccc(N2C(=NC(=O)C(C)Oc3ccccc3)SC3CS(=O)(=O)CC32)cc1 (configuration not stated) | 2.1 | 7.6 | 6333 | 10.5 | 2.0 | 1.8 | -6.1
Cc1cccc(N(C(=O)Cc2cccs2)C(C(=O)NC2CCCC2)c2ccsc2)c1 (configuration not stated) | -1.3 | . | 8085 | -11.6 | -2.5 | 2.9 | -36.9
COc1ccc(C(CC(=O)O)NC(=O)c2cccs2)cc1 (configuration not stated) | -1.1 | 0.9 | 16500* | 4.7 | 0.6 | 0.7 | -7.4
CC(=O)/C(=N/Nc1ccccc1Cl)Sc1nnc(C(O)c2ccccc2)n1-c1ccccc1 (configuration not stated) | . | 0.4 | 7232 | . | . | . | -17.9
CCOC(=O)c1cc(C(=O)c2cc(F)ccc2O)coc1=N | 9.9 | -2.9 | 4203 | . | . | 5.8 | -11.6
O[C@@H](c1cc(C(F)(F)F)nc2c(C(F)(F)F)cccc12)[C@H]1CCCCN1 | . | 8.5 | 5560 | . | . | . | -12.3
COc1ccc(/C=C2/C(=O)N(c3cccc(F)c3)N=C2C)c(OC)c1 | -0.1 | -2.2 | . | -3.8 | -3.0 | 4.9 | -7.0
C/C(=N\Nc1nc(Nc2ccccc2)nc(N2CCOCC2)n1)c1cccs1 | . | 5.6 | 2173 | . | . | . | -11.7

Exported as a markdown table: part of the list above.
| Molecule | Sa RN4220 lethal | BJeLR viability | Autofluor counter | Mtb hypoxia rep | Mtb hypoxia rep growth | Sa ugtP lethal | PrP 5UTR inh |
| --- | --- | --- | --- | --- | --- | --- | --- |
| CC(=O)/C(=N/Nc1ccccc1Cl)Sc1nnc(C(O)c2ccccc2)n1-c1ccccc1 (configuration not stated) | . | 0.4 | 7232 | . | . | . | -17.9 |
| CCOC(=O)c1cc(C(=O)c2cc(F)ccc2O)coc1=N | 9.9 | -2.9 | 4203 | . | . | 5.8 | -11.6 |
| O[C@@H](c1cc(C(F)(F)F)nc2c(C(F)(F)F)cccc12)[C@H]1CCCCN1 | . | 8.5 | 5560 | . | . | . | -12.3 |
| COc1ccc(/C=C2/C(=O)N(c3cccc(F)c3)N=C2C)c(OC)c1 | -0.1 | -2.2 | . | -3.8 | -3.0 | 4.9 | -7.0 |
| C/C(=N\Nc1nc(Nc2ccccc2)nc(N2CCOCC2)n1)c1cccs1 | . | 5.6 | 2173 | . | . | . | -11.7 |

More structures follow:
SMILES | Sa RN4220 lethal | BJeLR viability | Autofluor counter | Mtb hypoxia rep | Mtb hypoxia rep growth | Sa ugtP lethal | PrP 5UTR inh
CCC1CCCCN1C(=O)c1ccc(OC2CCN(C(=O)CCOC)CC2)cc1 (configuration not stated) | 1.1 | 4.2 | 5112 | 1.5 | 8.5 | 0.3 | -7.3
CN(C)/C=C/C(=O)c1ccc(-c2ccc(Cl)cc2Cl)o1 | 14.2 | -1.9 | 4357 | 15.0 | 9.8 | 1.2 | -92.9
COc1cc(OC)cc(C(=O)NC(C(=O)NNC(=O)CN(C)S(=O)(=O)c2ccc(C)cc2)C(C)C)c1 (configuration not stated) | 4.2 | . | 3783 | 20.9 | 44.7 | 1.9 | -16.2
CCOC(=O)Cn1c(=O)oc2cc(S(=O)(=O)NCCCc3ccccc3)ccc21 | 3.5 | 0.2 | 5860 | 10.3 | 4.7 | 10.7 | -26.1
Cc1ccnc(NS(=O)(=O)c2cccs2)c1 | 5.0 | 14.9 | 10724 | 7.2 | 6.0 | 3.2 | -16.7
CCCCN(C(=O)NCCCCCCNC(=O)N(CCCC)C1CCS(=O)(=O)C1)C1CCS(=O)(=O)C1 (configuration not stated) | 3.9 | -7.6 | 4437 | 5.0 | -2.7 | 7.6 | 8.0
O=C1CC(N2CCN(c3ccc(O)cc3)CC2)C(=O)N1c1ccc2c(c1)OCO2 (configuration not stated) | -1.8 | 1.2 | 4908 | -4.8 | 2.5 | -5.6 | -19.5
COc1ccc2[nH]c(CN3CCN(CC=C(C)C)C(CCO)C3)c(C)c2c1 (configuration not stated) | -0.5 | -1.3 | ? | 9.3 | 2.3 | 7.8 | -14.3
O=S(=O)(O)c1ccc(N=NNc2ccc(Br)cc2)cc1 | 4.0 | 0.2 | 4078 | 14.1 | 9.9 | 4.5 | -21.8
O=C(O)c1ccc(Cl)c(S(=O)(=O)N2CCC(Cc3ccccc3)CC2)c1 | -0.8 | -1.0 | 3705 | 8.3 | 1.1 | 19.0 | -22.8
Clc1ccccc1NC1=NCCCS1 | . | 0.9 | 5548 | . | . | . | -31.7
CCN=C1S/C(=C\c2sccc2C)C(=O)N1CC | 5.8 | 0.9 | 2171 | -0.5 | 4.8 | -8.1 | -29.5
Cc1ccc(N(CC(=O)N2CCOCC2)S(=O)(=O)c2ccccc2)cc1 | 9.4 | 4.7 | 2977 | 6.8 | -0.3 | 6.6 | -10.7
O=C(C1=C(O)C(=O)N(CCOCCO)C1c1cccc([N+](=O)[O-])c1)c1cccs1 (configuration not stated) | 3.5 | 0.4 | 4014 | 21.0 | 14.4 | 3.5 | 1.4
Cc1ccc(C2CC(c3cccs3)n3nc(N)nc3N2)cc1 (configuration not stated) | 0.9 | 2.0 | 16364* | 3.2 | 4.4 | 5.1 | -23.9
CCCc1ccc(C(=O)O/N=C(\N)c2ccccn2)cc1 | . | -1.1 | 3301 | . | . | . | 87.9*
Cc1cc(C)n(CC(=O)Nc2cccc(C(F)(F)F)c2)n1 | 5.0 | -8.1 | 4366 | 2.1 | 9.8 | 0.6 | -15.3
Cc1ccc(N2CCN(C(=O)N3CCCC3)CC2)cc1Cl | 3.4 | -27.0 | 11107 | 15.8 | 19.5 | -7.2 | -24.7
